Screening results (PubChem BioAssay)
GIRK2 act: GIRK2 channel activation; actives 0.05% (n = 63,000); AID 1259325; P48051; HEK293-GIRK2 thallium flux, Thallos fluorescence; calls only for hits at 25 µM;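 active = among the strongest 0.2% of first-round signals and kept after retests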;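 also: first round at about 10 µM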
Target sequence (P48051 whole entry, looked up): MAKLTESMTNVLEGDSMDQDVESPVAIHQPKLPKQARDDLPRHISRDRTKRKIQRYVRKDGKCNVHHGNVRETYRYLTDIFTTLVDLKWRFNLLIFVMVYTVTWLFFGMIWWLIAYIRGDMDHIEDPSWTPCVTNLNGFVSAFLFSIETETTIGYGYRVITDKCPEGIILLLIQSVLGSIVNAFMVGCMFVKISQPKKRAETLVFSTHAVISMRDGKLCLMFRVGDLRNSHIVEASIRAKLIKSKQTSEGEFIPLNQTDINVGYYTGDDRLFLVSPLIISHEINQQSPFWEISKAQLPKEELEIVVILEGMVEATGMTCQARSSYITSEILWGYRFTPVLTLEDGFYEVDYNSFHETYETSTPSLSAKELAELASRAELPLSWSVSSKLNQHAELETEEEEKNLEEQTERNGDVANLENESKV
Calls only; i = inactive. Not all compounds are listed (hit frequency here may not be typical).

| SMILES | GIRK2 act |
| --- | --- |
| CCOC(=O)N1CCN(C(=O)c2cc(=O)c(OCc3cccc(OC)c3)co2)CC1 | i |
| COc1ccc(C)cc1NC(=O)COc1cc(C)nc(N2CCCCCC2)n1 | i |
| O=C(O)/C=C/CCCCCCCCC(=O)O | i |
| COc1ccc(-n2c(C)cn3c4c(=O)n(Cc5cccc(C)c5)c(=O)n(C)c4nc23)cc1 | i |
| COc1ccc(N2CC(C)Cn3c2nc2c3c(=O)n(CC(=O)O)c(=O)n2C)c(OC)c1 (centres undefined) | i |
| COC(=O)c1ccc(C2NC(=O)NC(C)=C2C(=O)OCC(C)C)cc1 (centres undefined) | i |
| COC(=O)c1ccccc1N/C=C(\C#N)c1nc2ccccc2s1 | i |
| CC1=C(C(N)=O)C(c2ccc(O)cc2)n2nc(C)nc2N1 (centres undefined) | i |
| C#C[C@]1(O)CC[C@H]2[C@@H]3CCC4=Cc5oncc5C[C@]4(C)[C@H]3CC[C@@]21C | i |
| COC(=O)Cn1c(=O)c2c(nc3n2CCCN3c2ccc(OC)c(Cl)c2)n(C)c1=O | i |
| CCCCCn1c(=S)[nH]c2cc(C(=O)NCc3ccccc3Cl)ccc2c1=O | i |
| O=C(NCC(c1cccc2ccccc12)N1CCOCC1)c1ccc(F)cc1 (centres undefined) | i |
| CN1CC(c2nc3ccccc3n2Cc2ccc(Cl)cc2Cl)CC1=O (centres undefined) | i |
| CCOc1ccc(NS(=O)(=O)c2n[nH]c(C)c2C(=O)Nc2cccc(SC)c2)cc1 | i |
| COC(=O)c1ccccc1NC(=O)c1ccc2nccnc2c1 | i |
| Cc1csc(NC(=O)CN2CCN(Cc3nc(C(C)(C)C)cs3)CC2)n1 | i |
| CCOc1ccc(S(=O)(=O)N2CCCCCC2)cc1C(C)(C)C | i |
| CCCn1cc(-c2nc(-c3cc(OC)cc(OC)c3)no2)c(=O)c2ccccc21 | i |
| CCc1ccc2nc(N3C(=O)C(O)=C(C(=O)c4ccco4)C3c3ccco3)sc2c1 (centres undefined) | i |
| CCOc1ccc(/C=C2\SC(=S)N(c3ccc4c(c3)OCO4)C2=O)cc1OC | i |
| O=C(c1ccc2c(c1)OCCO2)N1CC(Oc2nc3c(Cl)cccc3s2)C1 | i |
| CCc1cccc(OCC(O)Cn2c(NCC(C)O)nc3c2c(=O)n(C)c(=O)n3C)c1 (centres undefined) | i |
| CCCCCCCCCCCCCCCNC(=O)C1CCCCC1 | i |
| O=C(CN1CCC(c2nnc(-c3ccsc3)o2)CC1)NC1CC1 | i |
| COc1cc(C(=O)Nc2nnc(-c3cccs3)o2)cc(OC)c1OC | i |
| COC(=O)c1ccc(NC(=O)CCc2csc(NC(=O)c3cccs3)n2)cc1 | i |
| COc1cccc2sc(N(C)CC(=O)NCc3ccncc3)nc12 | i |
| C/C=C/C(=O)OC1C=CC(O)C(OC(C)=O)CCC(=O)OC1C (centres undefined) | i |
| O=C(NCC(c1ccco1)N1CCc2ccccc2C1)c1cc(C2CC2)on1 (centres undefined) | i |
| Cc1ccc(CNC(=O)C2CCN(c3nc4c(-c5cccc(C)c5)csc4c(=O)[nH]3)CC2)cc1 | i |
| CCc1ccc(S(=O)(=O)N2CCC3(CCc4ccccc4O3)CC2)cc1 | i |
| NC(=O)C1CCN(C(=O)CCc2cccc(Oc3ccc(F)cc3)c2)CC1 | i |
| CCOc1ccc(NC(=O)CCl)cc1 | i |
| COc1ccc(CCNC(=O)Cn2ncn3nc(-c4ccccc4)cc3c2=O)cc1OC | i |
| COc1ccc(C)cc1S(=O)(=O)N1CCN(C)CC1 | i |
| Cc1cc(C)n(-c2cc(N3CCN(C(=O)Cc4ccc(F)cc4)CC3)ncn2)n1 | i |
| CN(C)CCCN1C(=O)c2oc3ccccc3c(=O)c2C1c1ccc(F)cc1 (centres undefined) | i |
| O=C(NCc1ccc(Cl)cc1)N1CCN(c2ccc(-c3noc(C4CC4)n3)cn2)CC1 | i |
| N#Cc1cccc(C(=O)NCC#CCOc2ccccc2C(N)=O)c1 | i |
| COc1ccc(-c2cc3c(SCC(=O)Nc4cc(OC)cc(OC)c4)nccn3n2)cc1 | i |

A stretch taken from the entries so far:
| SMILES | GIRK2 act |
| --- | --- |
| COC(=O)c1ccc(NC(=O)CCc2csc(NC(=O)c3cccs3)n2)cc1 | i |
| COc1cccc2sc(N(C)CC(=O)NCc3ccncc3)nc12 | i |

(cont.)
| SMILES | GIRK2 act |
| --- | --- |
| Cn1c(CN2CCN(CC(=O)Nc3ccc4c(c3)OCO4)CC2)nc2ccccc21 | i |
| O=C(NCCC(O)c1ccoc1)NCc1ccc(Cl)cc1 (centres undefined) | i |
| COc1ccc(C)cc1S(=O)(=O)NCCN1CCN(S(=O)(=O)c2cc(C)ccc2OC)CC1 | i |
| CN(C)S(=O)(=O)N1CCCC(c2nnc(-c3ccc4c(c3)OCO4)o2)C1 (centres undefined) | i |
| COc1cccc(C(=O)NC2CCN(C(=O)c3cn(-c4cccc(Cl)c4)nn3)CC2)c1 | i |
| COC(=O)C(C)Oc1ccc2c(c1)O/C(=C\C=C\c1ccccc1OC)C2=O (centres undefined) | i |
| N#Cc1nc(/C=C/c2cccs2)oc1N1CCN(C(=O)c2ccco2)CC1 | i |
| C=CCn1c(SCC(=O)c2cc(C)n(CCOC)c2C)nc2scc(-c3ccco3)c2c1=O | i |
| Nc1c(C(=O)N2CCOCC2)sc2nc(-c3cccs3)c3c(c12)CCCC3 | i |
| COc1ccc(S(=O)(=O)NCC#CCOc2ccc3c(c2)OCO3)cc1C | i |
| Cc1ccc(S(=O)(=O)Nc2ccc(C(=O)COC(=O)c3ccc(C)o3)cc2)cc1 | i |
| O=C(NCc1cnn2ccccc12)c1ccc(Cn2ccnc2)cc1 | i |
| CCOc1ccc(-c2cc3c(=O)n(CC(=O)Nc4ccc(OC)cc4)ccn3n2)cc1 | i |
| Cn1c(=O)c2c(nc3n2CCN3c2cccc(OCCN3CCOCC3)c2)n(C)c1=O | i |
| COCCOC(=O)C1=C(C)Nc2ncnn2C1/C=C/c1ccccc1 (centres undefined) | i |
| Cc1cc(NC(=O)C(=O)NCc2ccc(C(O)c3cccs3)s2)no1 (centres undefined) | i |
| COc1ccc(CC(=O)Nc2ccc3c(c2)N(S(=O)(=O)c2ccccc2)CCC3)cc1 | i |
| Cc1noc(C)c1CC(=O)NCc1cccnc1 | i |
| O=C(CN1C(=O)CCC1=O)N1CCC(Cn2cccn2)CC1 | i |
| Cc1nc2ccc(NC(=O)c3cc(Cl)ccc3[N+](=O)[O-])cc2c(=O)n1-c1ccccc1 | i |
| COc1cccc(N2CCN(C(=O)c3cc(=O)c(OC)co3)CC2)c1 | i |
| O=C(NCc1cccs1)N1CCC(Oc2ncccc2Cl)CC1 | i |
| Cc1ccc(=O)n(CC(=O)N2CCN(C(=O)c3ccco3)CC2)n1 | i |
| Cc1ccccc1C(=O)N1CCC(CSCc2ccco2)CC1 | i |
| CCOC(=O)c1ccc(NC(=O)COC(=O)c2cn(CC)c3nc(C)ccc3c2=O)cc1 | i |
| N#Cc1nc(-c2ccc(S(=O)(=O)N3CCCC3)cc2)oc1N1CCC(C(N)=O)CC1 | i |
| Cc1n[nH]c(C)c1S(=O)(=O)NCC1(c2cccs2)CCCC1 | i |
| Cc1nc2sccn2c1-c1nnc(SCC(=O)N2CCc3ccccc32)n1C | i |
| Cc1cccc(NC(=O)Cc2coc3ccc4ccccc4c23)n1 | i |
| CS(=O)(=O)NCC1CCC(C(=O)NC2CCN(Cc3ccccc3)CC2)CC1 (centres undefined) | i |
| CN1CCN(C(=O)c2ccc(CNS(=O)(=O)c3ccc(F)c(Cl)c3)cc2)CC1 | i |
| O=C(c1cccc(N2C(=O)CCC2=O)c1)N1CCC(Oc2nc3c(Cl)cccc3s2)CC1 | i |

Five structures out of the list, arranged by SMILES length, ascending.
| SMILES | GIRK2 act |
| --- | --- |
| Cc1cccc(NC(=O)Cc2coc3ccc4ccccc4c23)n1 | i |
| Cc1n[nH]c(C)c1S(=O)(=O)NCC1(c2cccs2)CCCC1 | i |
| Cc1nc2sccn2c1-c1nnc(SCC(=O)N2CCc3ccccc32)n1C | i |
| CN1CCN(C(=O)c2ccc(CNS(=O)(=O)c3ccc(F)c(Cl)c3)cc2)CC1 | i |
| N#Cc1nc(-c2ccc(S(=O)(=O)N3CCCC3)cc2)oc1N1CCC(C(N)=O)CC1 | i |

(cont.)
| SMILES | GIRK2 act |
| --- | --- |
| COC(=O)c1ccc(C(=O)OC)c(Nc2nc3ccccc3nc2NS(C)(=O)=O)c1 | i |
| Cc1cccc(NC(=O)CCS(=O)(=O)Cc2ccccc2)n1 | i |
| CCOC(=O)CSc1nnc(NC(=O)c2cn(C)nc2OC)s1 | i |
| COc1ccc(S(=O)(=O)N2CCN=C2SCc2ccc(Cl)c(Cl)c2)cc1 | i |
| CC(C)Sc1ccc(CC(=O)NCC2(c3cccs3)CC2)cc1 | i |
| CCOCCn1c(=O)c2c(nc3n2CCCN3c2cccc(C)c2C)n(C)c1=O | i |
| COc1ccccc1C(=O)Nc1nnc(-c2ccccc2OC)o1 | i |
| CC(=O)c1ccc(NC(=O)C2Cc3ccc(Cl)cc3C(=O)O2)cc1 (centres undefined) | i |

Reprinted at random: 2 entries already listed.
| SMILES | GIRK2 act |
| --- | --- |
| O=C(NCc1ccc(Cl)cc1)N1CCN(c2ccc(-c3noc(C4CC4)n3)cn2)CC1 | i |
| COC(=O)c1ccccc1N/C=C(\C#N)c1nc2ccccc2s1 | i |

Further structures
| SMILES | GIRK2 act |
| --- | --- |
| Cc1nc(-c2nnn(-c3ccccc3)c2C)sc1C(=O)N1CCOCC1 | i |
| Cc1cc(C)n(CCN(C(=O)c2cc3ccccc3oc2=O)c2nc3c(F)cc(F)cc3s2)n1 | i |
| O=C(c1ccc(-n2cccc2)cc1)N1CC(c2nc(-c3cccs3)no2)C1 | i |
| CN(C)C(CNC(=O)C(=O)NCCC1=CCCCC1)c1cn(C)c2ccccc12 (centres undefined) | i |
| CC(=O)Cn1c(=O)c2c(nc3n2CCCN3c2cc(C)cc(C)c2)n(C)c1=O | i |
| Cc1cc(NC(=O)C2CC(=O)c3ccccc32)no1 (centres undefined) | i |
| Cc1ncc([N+](=O)[O-])n1CC(C)O (centres undefined) | i |
| COCCOCC1CCN(S(=O)(=O)c2ccc(C(F)(F)F)cc2)CC1 | i |
| COc1ccc(N/C=C(\C#N)c2nc(-c3cccc4ccccc34)cs2)cc1OC | i |
| Cc1cccn2c(=O)cc(OCC(=O)N3CCc4ccccc43)nc12 | i |
| Cc1ccnc(Nc2nc(CC(=O)Nc3ccc4c(c3)OCCO4)cs2)c1 | i |
| CCNC(=O)c1nc(C(=O)NCc2cc(OC)ccc2OC)cs1 | i |
| O=C(Nc1c2c(nn1-c1ccc(F)cc1)CSC2)C(=O)NC1CCCCCC1 | i |
| CCc1cc(=O)[nH]c(-n2nc(C3CC3)cc2NC(=O)c2cc(-c3ccco3)on2)n1 | i |
| Cc1cc(C)nc(Nc2nc(CC(=O)N3CCc4ccccc4C3)cs2)n1 | i |
| COc1ccc(OCc2noc(CNC(=O)Cc3ccc(F)cc3)n2)cc1 | i |
| CC(C)N(CC#CCNC(=O)c1ccc2cc[nH]c2c1)C(C)C | i |
| CCOc1ccc(-c2nnc3n(CCc4ccccc4)c4c(=O)n(C)c(=O)n(C)c4n23)cc1 | i |
| CN(C)CCCN1c2ccccc2CCc2ccccc21 | i |
| CCOc1ccc(NC(=O)NCCc2csc(-c3cccc(F)c3)n2)cc1 | i |
| CC(=O)C1C(c2ccc(OCc3ccccc3)cc2)NC(=O)NC1(O)C(F)(F)F (centres undefined) | i |
| CCCCCNS(=O)(=O)CCNC(=O)c1ccc(OC)cc1 | i |
| CCCC(=O)N1CCN(C(=O)C(NC(=O)c2ccccc2C)S(=O)(=O)c2ccc(F)cc2)CC1 (centres undefined) | i |
| O=S(=O)(/C=C/c1ccccc1)N1CCCC(c2nnc(-c3cccs3)o2)C1 (centres undefined) | i |
| Cc1cc(C)cc(C(=O)NC2CCN(C(=O)c3cn(-c4ccc(Cl)cc4)nn3)CC2)c1 | i |
| COCCn1c(=NC(=O)c2ccn(C)n2)sc2cc(C(=O)OC)ccc21 | i |
| COc1ccc(OC)c(CNC(=O)CCn2cnc3c([nH]c4ccccc43)c2=O)c1 | i |
| CS(=O)(=O)c1ccc(NC(=O)CCCS(=O)(=O)Cc2ccccc2)cc1 | i |
| CC(O)(CNS(=O)(=O)c1ccc2c(c1)CCO2)C1CC1 (centres undefined) | i |
| Cc1ccc(S(=O)(=O)Nc2ccc3c(c2)CCCN3C(=O)c2ccccc2)cc1C | i |
| CCC(=O)Nc1ccc(S(=O)(=O)NCC2(c3ccccc3OC)CCOCC2)c(C)c1 | i |
| CN1CCC(CNC(=O)c2ccccc2Cl)CC1 | i |
| COc1ccc(Nc2ccc3c(=O)c(-c4ccc(OC)c(OC)c4)coc3c2)cc1 | i |
| COc1cccc(CSc2nc(CC(=O)NCCc3ccccc3)cc(=O)[nH]2)c1 | i |
| O=C(CN1CCC(Cn2c(C(F)(F)F)nc3ccccc32)CC1)Nc1ccccc1C(F)(F)F | i |
| COCCCn1c(-c2cccs2)nc2oc3cc(OC)ccc3c(=O)c2c1=O | i |
| O=C(Nc1sc2c(c1-c1nc3ccccc3s1)CCCC2)c1ccc(Br)s1 | i |
| COc1cccc(-c2nc(CSc3nc(-c4ccncc4)cc(=O)[nH]3)c(C)o2)c1OC | i |
| CC(=O)c1ccc(OCC(=O)Nc2cc(-n3cccn3)ncn2)cc1 | i |
| CC(O)(CNC(=O)C1CCCC1)c1cccs1 (centres undefined) | i |
| O=S(=O)(N=C(c1ccccc1)N1CCCCCC1)c1ccc(F)cc1 | i |
| COc1ccccc1NC(=O)CSc1nccn1-c1cccc(C(=O)NCc2cccs2)c1 | i |
| O=C(NCC1(CO)CC1)C(=O)NC1CCCC1 | i |
| Cc1nnsc1C(=O)N1CCN(c2ccc(-c3noc(C(F)(F)F)n3)cn2)CC1 | i |
| COC(=O)c1ccc(NC(=O)Cn2cccc(-c3nc(-c4ccccc4)no3)c2=O)cc1 | i |
| CCOc1ccccc1C(=O)Nc1ccc(C)c(N2CCCC2=O)c1 | i |
| COc1ccccc1N1CCN(CCNS(=O)(=O)c2ccc(NC(C)=O)cc2C)CC1 | i |
| O=C(CCCSc1ccc(NC(=O)c2cccs2)nn1)NCC1CCCO1 (centres undefined) | i |
| COc1ccc(CC(C)(O)CNC(=O)c2cc(Br)ccc2Cl)cc1 (centres undefined) | i |
